VDR inhibitor = blocks the human vitamin D receptor; Potency, µM, inactives show max response, negative = inhibition, usual class: inhibitors; VDR-SRC2-3 peptide fluorescence polarization, 2 h; AID 504847; actives 0.93% (n = 400,000); active = well fitted inhibition curve with a large enough effect; inconclusive = small, poorly fitted or top-dose-only effect, or another doubt; inactive = no such curve, though single readings can be large or run the other way; note: series mostly up to about 120 µM
Target sequence (P11473 whole entry, looked up): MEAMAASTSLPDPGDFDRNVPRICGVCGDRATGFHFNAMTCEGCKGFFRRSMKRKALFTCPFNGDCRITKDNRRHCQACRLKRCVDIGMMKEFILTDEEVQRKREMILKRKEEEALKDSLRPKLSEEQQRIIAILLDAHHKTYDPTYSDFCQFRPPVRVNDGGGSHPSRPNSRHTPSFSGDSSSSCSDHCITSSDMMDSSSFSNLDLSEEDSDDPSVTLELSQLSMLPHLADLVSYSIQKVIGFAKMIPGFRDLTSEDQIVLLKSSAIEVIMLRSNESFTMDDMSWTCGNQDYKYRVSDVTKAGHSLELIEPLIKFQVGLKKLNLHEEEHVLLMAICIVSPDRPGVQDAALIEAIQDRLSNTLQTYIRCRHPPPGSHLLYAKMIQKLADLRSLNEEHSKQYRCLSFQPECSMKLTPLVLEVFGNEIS
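Two reagent solutions held at 4 deg C in the dark were dispensed, compounds pinned at 23 nl, and the mixture incubated 2 h at room temperature. Read-out: fluorescence polarization of VDR–SRC2-3 peptide binding.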
Starred values were filed as active, the others as inactive; ? = inconclusive; & = joins results of further samples; [ ] = another dose, or the depositor's remark. % is set by controls: 0 for no effect and ±100 for the full control effect; potency is the fitted concentration of half-maximal effect. These rows are one share of the data. The share of hits here may be higher or lower than overall.

SMILES	VDR inhibitor
CCCCN(C(=O)CN(C)CC(=O)Nc1cccc(OC)c1)c1c(N)n(CCCC)c(=O)[nH]c1=O	11.9%
Cc1nn(C)cc1S(=O)(=O)Nc1ccc(C(F)(F)F)cc1	-7.1%
C=C(C)COc1ccc(-c2[nH]ncc2-c2ccc(Br)cc2)c(O)c1	8.8%
COc1ccc(C)cc1NC(=S)NC(C)c1ccc(OC)c(OC)c1 (stereo not given)	-3.6%
Cc1cccc(NC2=CC(=O)OC(C)C2)c1 (stereo not given)	-3.2%
COC(=O)[C@@]1(Cc2ccc(F)cc2)[C@@H]2[C@@H](CC(=O)[C@H]2CC(=O)C(=O)N(C)C)CN1C(=O)c1ccccc1	3.0%
O=[N+]([O-])c1cc(CS(=O)(=O)Oc2ccc(Cl)cc2)c(O)c([N+](=O)[O-])c1	-3.8%
Fc1ccccc1N1CCN(Cc2cnc(Cl)s2)CC1	-6.1%
COc1ccc(NC(=O)CN2CCC(C)CC2)c([N+](=O)[O-])c1	-15.4%
CC(OC(=O)C1=Cc2ccccc2OC1)C(=O)NC(C)(C)C (stereo not given)	3.2%
CCCCCCCCN1[C@@H](CC(=O)OCC)c2cc(C(F)(F)F)ccc2S1(=O)=O	33.5%[activator]
O=C(Nc1ccccc1)/C(=C/c1cccnc1)NC(=O)c1ccco1	-15.5%
COc1ccc(NC(=O)Nc2ccccc2C(N)=O)cc1OC	-0.3%
O=C(Nc1ccc2snnc2c1)N1CCN(c2ccccc2)CC1	4.3%
CC(=O)N1c2ccccc2CCc2ccc(N)cc21	-14.8%

Some of these compounds in order of their number in VDR inhibitor, highest first.
SMILES	VDR inhibitor
O=C(Nc1ccc2snnc2c1)N1CCN(c2ccccc2)CC1	4.3%
COC(=O)[C@@]1(Cc2ccc(F)cc2)[C@@H]2[C@@H](CC(=O)[C@H]2CC(=O)C(=O)N(C)C)CN1C(=O)c1ccccc1	3.0%
COc1ccc(C)cc1NC(=S)NC(C)c1ccc(OC)c(OC)c1 (stereo not given)	-3.6%
O=C(Nc1ccccc1)/C(=C/c1cccnc1)NC(=O)c1ccco1	-15.5%

At a glance, 3 of the compounds above:
SMILES	VDR inhibitor
COc1ccc(NC(=O)Nc2ccccc2C(N)=O)cc1OC	-0.3%
O=C(Nc1ccc2snnc2c1)N1CCN(c2ccccc2)CC1	4.3%
CC(=O)N1c2ccccc2CCc2ccc(N)cc21	-14.8%

More structures:
SMILES	VDR inhibitor
NC(=O)c1ccccc1OCC(=O)Nc1cccnc1Cl	17.3%
CCc1ccc(CN(C)C(=O)CC2C(=O)NCCN2Cc2ccoc2)cc1 (stereo not given)	-4.8%
CN(C)c1ccc(C(=S)N2CCN(Cc3ccccc3)CC2)cc1	50.1µM*
COc1cccc(CNc2nc3ccccc3n2CCN2CCCCC2)c1OC	8.9%
O=C(COC(=O)CCc1nc2ccccc2c(=O)[nH]1)Nc1c(Cl)cccc1C(F)(F)F	-17.2%
COc1cc(NS(C)(=O)=O)c(OC)cc1NC(=O)c1cccc(F)c1	-0.2%
COc1cc(O)c(C(=O)c2ccccc2)cc1O	?
CC1(C)Cc2c(c(N3CCCC3)nc3sc(C(=O)Nc4ccccc4)c(N)c23)CO1	-1.8%
Cc1c(C#N)c(NC(=O)CCl)n(Cc2cccs2)c1C	-26.4%
Cc1ccc(SCC(CC(C)C)N2CCN(C)CCC2=O)cc1 (stereo not given)	-2.2%
Cc1ccc2c(c1)C1CN(C)CCC1N2S(=O)(=O)c1cccc(F)c1 (stereo not given)	-22.9%
COc1ccc(C)cc1NS(=O)(=O)c1c(C(=O)N2CCC(C)CC2)c(C)n(C)c1C	16.8%
CCC(CC)C(=O)Nc1cc(OC)c(OC)cc1C(=O)O	-14.5%
Cc1ccc(NCc2nnc(SCC(=O)NNC(=O)Cc3ccccc3)n2C)cc1	2.0%
Cc1nnc(NC(=O)CSc2nnc(CNC(=O)C34CC5CC(CC(C5)C3)C4)n2C2CCCCC2)s1	-8.3%
COc1ccccc1CNC(=O)CNCCc1ccc(OC)c(OC)c1	-1.2%
CCOc1ccc(OCCOC(=O)CN2C(=O)NC3(CCCC3)C2=O)cc1	-18.9%
Cc1cccc(OCc2nc(-c3nonc3N)no2)c1C	-2.7%
O=C(O)CC1S/C(=N/N=C/c2ccc(Br)cc2)N(c2ccccc2)C1=O (stereo not given)	14.4%
CCCN(CCC)C(=O)c1cc2c(=O)n3cccc(C)c3nc2n1C	9.3%
Cc1sc2nc(CSc3cccc(C(F)(F)F)c3)[nH]c(=O)c2c1C	-15.8%
CN(CC(=O)Nc1ccc(F)c(F)c1F)C(=O)c1cc(-c2ccncc2)nc2ccccc12	18.1%
CCOc1ccc(C(C)=O)cc1CSc1nc2nc(C)cc(C)n2n1	-18.9%
COc1ccc2nc(C(F)(F)Cl)c(C#N)c(N)c2c1	12.2%
Cc1cccc(N2CCN(C(=O)c3cc4ccccc4oc3=O)CC2)c1C	-12.7%
c1ccc2nc(NN=C3CCCCC3)ccc2c1	4.4%
CC(C)(C)C(=O)Nc1ccc(S(=O)(=O)N2CCCC2)cc1	7.2%
CCCCC1OC2(C)OC(=N)C1(C#N)C(C#N)(C#N)C2c1ccccc1 (stereo not given)	1.6%
COCCOC(=O)c1c(NC(=O)CNC2CCCc3ccccc32)sc(C(N)=O)c1C (stereo not given)	8.1%
NC(=O)c1ccc2nc(NC(=O)c3ccc(N)cc3)sc2c1	-8.2%
CCN(C(=O)COC(=O)Cn1c(=O)oc2ccccc21)c1c(N)n(Cc2ccccc2)c(=O)[nH]c1=O	1.9%
COC(=O)Cc1c(C)c2ccc3c(c2oc1=O)CN(Cc1ccc(C)cc1)CO3	6.1%
O=C(Nc1cccc2ncccc12)c1ccc(-c2ccc(Br)cc2)o1	6.1%
CC(C)(C)c1ccc(C(=O)NC(=S)NNC(=O)COc2ccccc2)cc1	-6.2%
CC(=O)NC(=O)c1ccc(-c2ccc(Cl)cc2)o1	-3.5%
CC(Sc1nc(-c2ccccc2)cc(C(F)(F)F)n1)C(=O)NCCN1CCOCC1 (stereo not given)	13.8%
Cc1ccc(-n2nnnc2-c2cccc(C)c2)cc1	-9.8%
O=C1/C(=C/c2cccs2)SC(=S)N1CCC(=O)N1CCCCC1CCO (stereo not given)	-9.1%
Cc1cccc(C)c1OCC(=O)NCc1ccccc1	6.7%
CN(Cc1ccccc1)S(=O)(=O)c1nnc(NC(=O)c2ccccc2Cl)s1	14.6%
CC1OC(OCC2OC(Oc3c(-c4ccc(OCCO)c(OCCO)c4)oc4cc(OCCO)cc(O)c4c3=O)C(O)C(O)C2O)[C@@H](O)C(O)C1O (stereo not given in full)	0.8%
C=CCC1(CC=C)CCCN1C(=O)c1cc(COc2ccc(-n3cncn3)cc2)on1	1.5%
CC(c1ccccc1)N1C(=O)c2ccc(C(=O)Nc3ccccc3C(=O)O)cc2C1=O (stereo not given)	-20.4%
CCOc1ccc(-c2cc(CCCC(=O)Nc3cccc(OC)c3)no2)cc1	6.4%
O=C(O)CCC(=NNC(=O)c1cccc(S(=O)(=O)N2CCCCC2)c1)c1ccccc1	3.4%
CC1CCN(CC(=O)NCCc2ccc(F)cc2)CC1	-18.5%
Cc1nn2c(=O)cc(COC(=O)c3cccc(NC(=O)COc4ccccc4Cl)c3)nc2s1	9.2%
Nc1nc(NCC2CCCO2)nc(Nc2ccc(F)cc2)c1[N+](=O)[O-] (stereo not given)	4.1%
CCc1ccccc1N(CC(=O)NCc1ccco1)C(=O)CCC(=O)Nc1ccccn1	-0.1%
CCCN1CCN(S(=O)(=O)c2ccc3c(c2)NC(=O)C(C)S3)CC1 (stereo not given)	5.1%
CS(=O)(=O)c1ccc(C(=O)Nc2ccc(N3CCCCC3)cc2)c(Cl)c1	-9.0%
Cc1cc(-c2ccc(NC(=O)[C@@H]3CCCC[C@@H]3C(=O)O)c(C)c2)ccc1NC(=O)[C@@H]1CCCC[C@@H]1C(=O)O	-5.3%
COc1cc(/C=C2/SC(=S)N(CC(=O)O)C2=O)ccc1OC(=O)c1ccco1	-26.1%
Cc1cc(C)nc(NC2=NC3CCCCC3N2)n1 (stereo not given)	28.4%
CN(c1ccccc1)S(=O)(=O)c1cccc(NC(=O)c2ccc(Cl)c([N+](=O)[O-])c2)c1	4.4%
O=C(Nc1ccccn1)C1CCN(S(=O)(=O)c2cccc3nonc23)CC1	-10.7%
Cc1ccc(-c2csc3nc(=O)c(C)nn23)cc1	-15.4%
O=C(c1ccc(F)cc1)C1CCN(C(=O)c2ccncc2)CC1	11.3%
O=C(COc1ccc(-n2cnnn2)cc1)Nc1ccccc1OC(F)F	-7.4%
CCOC(=O)CCc1c(C)c2ccc(OCC(=O)N3CCOCC3)c(C)c2oc1=O	-8.9%

Remaining list, next part:
SMILES	VDR inhibitor
Cc1ccc(NC(=O)Cn2cc(S(=O)(=O)Cc3ccccc3)c3ccccc32)cc1C	7.9%
CCn1c(=O)cc(SCC(=O)NCc2ccc(F)cc2Cl)c2ccccc21	3.1%
COc1ccccc1C(=O)Nc1c(C(=O)Nc2cc(Cl)ccc2C)sc2nc(C)cc(C)c12	5.0%
O=C(Nc1cccc(Cl)c1)N1CCN(C2c3ccccc3-c3ccccc32)CC1	12.4%
Cc1ccc(OCCSc2nc3ccc(NC(=O)c4ccc(F)cc4)cc3s2)cc1	11.6%
COc1ccccc1C(=O)NCCN=C1NS(=O)(=O)c2ccccc21	1.9%
CCCCC(=O)OC1=C(C(C)=O)N(Cc2ccccc2)S(=O)(=O)c2ccccc21	-11.1%
C=C1CC2C(=O)N(Cc3cc(OC)ccc3OC)C(C(=O)OCC)(C(=O)OCC)C1N2C(=O)OC(C)(C)C (stereo not given)	-8.8%&-6.7%
Nc1c(C(=O)NCc2ccccc2)nnn1Cc1ccc(F)cc1	0.8%
Cc1cccc(-n2c(SCc3ccc(C#N)cc3)nnc2-c2c[nH]c3ccccc23)c1	2.8%
Cc1ccc(S(=O)(=O)N2CCN(C(=O)c3cc4c(s3)CCC(C)C4)CC2)cc1 (stereo not given)	13.5%
c1ccc(-c2nc(-c3ccccn3)no2)cc1	-2.9%
Cc1cccc(CN2C(=O)c3ccccc3S(=O)(=O)c3ccc(C(=O)NCCCN4CCCC4)cc32)c1	-16.0%
COc1ccccc1-n1cc(CN2CCN(CC(C)C)C(CCO)C2)cn1 (stereo not given)	7.5%
Nc1ncnc2c1ncn2CCOc1ccccc1	11.0%
CCOc1ccc(NCCC(O)c2ccc(F)cc2)cc1 (stereo not given)	0.9%
COc1ccc(NC(=O)C2CCCN(c3nccc(C)n3)C2)cc1 (stereo not given)	7.7%
Cc1ccc(N(Cc2cccs2)C(=O)c2ccccc2)cc1	-5.5%
Cc1ccc(-c2onc3ccc(C=O)cc23)cc1	23.3%
O=C(CNC(=O)c1ccccc1Br)N/N=C/c1cc(Br)ccc1O	14.5%
Cc1ccc(CN2CCN(Cc3cn(C)nc3C)CC2CCO)o1 (stereo not given)	-25.2%
O=C(CSc1nc(C2CC2)n(-c2ccccc2)n1)NCc1ccco1	3.8%
CC(/C=C\C=C\c1ccccc1)=N\NC(=O)c1cncc(Br)c1	-17.0%
O=C(CSc1nc(-c2ccco2)cc(C(F)(F)F)n1)NCC1CCCO1 (stereo not given)	-19.7%
O=C(CSc1nnnn1-c1ccc2c(c1)CCC2)NCc1cccs1	17.0%
COc1ccccc1C(=O)NCCn1cc(SCc2ccccc2Cl)c2ccccc21	9.2%
N#C/C(=C(/O)c1ccc(Cl)cc1)c1nc2ccccc2[nH]1	2.8%
COc1ccc(CN(CCC(c2ccco2)C(C)C)C(C)=O)cc1OC (stereo not given)	-12.8%
COCCn1c(SCC(=O)Nc2nnc(C)s2)nnc1-c1ccncc1	-0.8%
CCOC(=O)[C@H]1[C@H]2COc3ccc(Cl)cc3[C@@H]2N2C(=O)c3ccccc3NC(=O)[C@@]12C	2.0%
CC(/C=N/NC(=O)c1nnn(-c2nonc2N)c1CN1CCCCC1)c1ccccc1 (stereo not given)	5.3%
CCOC(=O)N1CCN(C(c2cccnc2)c2ccc3cccnc3c2O)CC1 (stereo not given)	39.8µM*
NC(=O)CSc1ncnc2c1nnn2Cc1ccc(F)cc1	-0.1%
O=C1CCCCC/C1=N/Nc1ccc(OCc2ccccc2)cc1	-3.2%
CCOC(=O)c1ccc(NC(=O)CS(=O)(=O)Cc2nc(-c3ccc(C)cc3)oc2C)cc1	-20.8%
Cc1ccc2c(NC(=S)NC(=O)c3ccccc3)cccc2n1	-6.2%
Cc1cc(Nc2nc3ccccc3c3nnc(C)n23)ccc1Br	-9.0%
CN1CCc2c(sc3c2c(=O)n(-c2cccc(Cl)c2)c2nncn32)C1	6.1%
O=C(COc1ccccc1Br)NCc1ccccn1	7.9%
CC1CCN(c2nn3c(=O)c(C(=O)NCCCOC(C)C)cnc3s2)CC1	4.8%
N#CCC(=O)NC1CCC(CC2CCC(NC(=O)CC#N)CC2)CC1 (stereo not given)	6.7%
Cc1cnc(NC(=O)C2CC=CCC2)s1 (stereo not given)	-1.3%
Cc1ccccc1NC(=O)C1CCN(S(=O)(=O)c2cccs2)CC1	-12.7%
c1nc(N2CCNCC2)c2cc(-c3ccc4c(c3)OCO4)ccc2n1	-3.4%
CC1Cc2ccccc2N1C(=O)COC(=O)Cn1nnc(-c2ccccc2)n1 (stereo not given)	15.9%
COc1cc2c(cc1OC)C(COc1ccc3c(C)cc(=O)oc3c1)N(C(=O)C(C)C)CC2 (stereo not given)	-1.8%
COc1cc(S(=O)(=O)n2ccnc2)ccc1Br	4.5%
Cc1ccc(N(CC(=O)NCc2ccc(OC(C)C)cc2)S(=O)(=O)N(C)C)cc1	5.3%
COc1ccc(-n2[nH]c(C)cc2=O)cc1	5.0%
CCN(C(=O)C1CC1)C1CCS(=O)(=O)C1 (stereo not given)	24.0%
Cc1cccc(/C=N/NC(=O)c2ccc(Br)cc2)c1	-10.8%
O=C(Oc1ccc(=O)n(-c2ccccc2)n1)c1ccc(F)cc1	?
